Sa growth 42C: blocks Staphylococcus aureus growth. S. aureus RN4220 growth, OD600, 20 h, 42 °C; hits give low values. relative growth, % (concentration not given with the values). 170,000 compounds, 0.53% hits;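 active means growth at 42 °C up to 50% and 20 or more points under that at 30 °C, or under 10% at both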;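 further: 300 nL library stock went into each well; scaled to the means of positive and negative controls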
GIV Gai3 FP: inhibitors of GIV GBA-motif binding to rat Galpha-i3. P08753. Galpha-i3/FITC-GIV peptide fluorescence polarization, 90 min; hits give low values; scaled: aluminum fluoride 0%, vehicle 100%. percent of control (FP), % (concentration not given with the values). 210,000 compounds, 0.42% hits;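 active means replicate mean at 85% of control or lower, very high polarization wells dropped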;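 further: wells of about 15 µL received 100 nL stock; the first replicate is given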
Target sequence (P08753 whole entry, looked up): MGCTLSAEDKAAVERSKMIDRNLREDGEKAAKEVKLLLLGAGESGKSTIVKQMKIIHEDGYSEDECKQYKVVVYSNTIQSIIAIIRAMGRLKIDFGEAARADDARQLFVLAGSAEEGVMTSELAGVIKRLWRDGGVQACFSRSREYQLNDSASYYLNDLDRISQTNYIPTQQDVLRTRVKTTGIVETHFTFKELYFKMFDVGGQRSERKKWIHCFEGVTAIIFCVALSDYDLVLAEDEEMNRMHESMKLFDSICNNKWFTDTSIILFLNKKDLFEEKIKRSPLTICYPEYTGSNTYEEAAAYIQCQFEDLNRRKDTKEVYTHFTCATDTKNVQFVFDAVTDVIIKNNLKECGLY
HCMV UL50-53 inh: disrupts HCMV UL50-UL53 complex binding; 190,000 compounds, 0.15% hits; AID 1918969; inhibition, % (concentration not given with the values); HTRF UL50-UL53 interaction, normalized percent inhibition;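 active means both replicates at 50% or more, plus weaker picks with an unusually low signal ratio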;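 further: stock transfer was 100 nL into about 20 µL; 0% = negative control wells and 100% = wells with untagged competitor protein; inactives centre near -12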
Sa growth 42C second temp: further read-out of Sa growth 42C, marked with its call; relative growth, %; measured here: growth at 30 °C;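 optical density after 20 h as mean of two plates; 100% = untreated growth and lower means inhibition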
Active calls of the source: *; . = not tested or not shown.

The opening 18 records as a preview:
Short forms – A = Sa growth 42C; B = Sa growth 42C second temp; C = GIV Gai3 FP; D = HCMV UL50-53 inh
COc1cc(C(=O)N2N=C(c3ccccc3)CC2c2ccccc2[N+](=O)[O-])cc(OC)c1OC (stereo not given)
  A: . | B: . | C: 104 | D: -1
O=C1CSC(c2cccs2)N1c1ccccc1 (stereo not given)
  A: 84 | B: 88 | C: . | D: -34
COc1ccc2[nH]cc(/C=C/c3nc4ccccc4c(=O)n3-c3ccccc3)c2c1
  A: . | B: . | C: 107 | D: 22
O=C1CCC(C(=O)Nc2ccc(S(=O)(=O)NCc3ccco3)cc2)=NN1
  A: 93 | B: 92 | C: . | D: -5
Cc1ccc(NC(=O)C2CC(=O)N(c3ccc(OC(C)C)cc3)C2)cc1 (stereo not given)
  A: 107 | B: 84 | C: 98 | D: -41
CCCc1cc(=O)[nH]c(-n2nc(C)cc2NC(=O)c2ccc(C(C)(C)C)cc2)n1
  A: . | B: . | C: 101 | D: -14
CC(C)c1ccc(NC(=S)N(Cc2ccccc2)C(C)C)cc1
  A: 101 | B: 90 | C: 103 | D: -50
CCCN1C(=O)c2ccccc2NC1c1ccc(OC)c(CSc2ccccn2)c1 (stereo not given)
  A: . | B: . | C: 101 | D: -15
Cc1[nH]nc2c1C(c1ccccc1)N(c1ccc(Br)cc1)C2=O (stereo not given)
  A: . | B: . | C: 102 | D: 19
COc1ccc(OC)c(C2C3=C(CC(C)(C)CC3=O)Nc3ccccc3N2C(=O)c2ccccc2)c1 (stereo not given)
  A: . | B: . | C: 103 | D: -25
CN(C)S(=O)(=O)n1cc(/C=C(\NC(=O)c2ccccc2Cl)C(=O)NCCCn2ccnc2)c2ccccc21
  A: 99 | B: 86 | C: 106 | D: -22
O=C1CCCc2cc(S(=O)(=O)NCC3CCC(C(=O)NCc4ccc(F)cc4)CC3)ccc2N1 (stereo not given)
  A: 87 | B: 92 | C: 100 | D: .
O=C(COc1ccccc1)n1nc(-c2ccc(Cl)cc2)nc1NCc1ccco1
  A: 104 | B: 102 | C: 111 | D: 3
CC(=O)N1N=C(COc2ccc3c(c2)OCO3)OC1c1ccc(C)cc1 (stereo not given)
  A: 109 | B: 88 | C: 101 | D: -38
CCOc1ccc(OCC(=O)OCc2ncc(-c3ccccc3)o2)cc1
  A: 101 | B: 104 | C: . | D: 12
COc1ccc(OC)c(NC(=O)Cc2coc3ccc(C)cc23)c1
  A: 107 | B: 89 | C: 104 | D: -5
CC1CCCC(C)N1C(=O)Cn1cc(/C=C2/C(=O)Nc3ccccc32)c2ccccc21 (stereo not given)
  A: 114 | B: 84 | C: 111 | D: .
Nc1cc(N)nc(SCC(=O)N2CCCC2c2ccc3c(c2)OCCCO3)n1 (stereo not given)
  A: 78 | B: 89 | C: . | D: -21

Results, repeating the preview:
Short forms – A = Sa growth 42C; B = Sa growth 42C second temp; C = GIV Gai3 FP; D = HCMV UL50-53 inh
COc1cc(C(=O)N2N=C(c3ccccc3)CC2c2ccccc2[N+](=O)[O-])cc(OC)c1OC (stereo not given)
  A: . | B: . | C: 104 | D: -1
O=C1CSC(c2cccs2)N1c1ccccc1 (stereo not given)
  A: 84 | B: 88 | C: . | D: -34
COc1ccc2[nH]cc(/C=C/c3nc4ccccc4c(=O)n3-c3ccccc3)c2c1
  A: . | B: . | C: 107 | D: 22
O=C1CCC(C(=O)Nc2ccc(S(=O)(=O)NCc3ccco3)cc2)=NN1
  A: 93 | B: 92 | C: . | D: -5
Cc1ccc(NC(=O)C2CC(=O)N(c3ccc(OC(C)C)cc3)C2)cc1 (stereo not given)
  A: 107 | B: 84 | C: 98 | D: -41
CCCc1cc(=O)[nH]c(-n2nc(C)cc2NC(=O)c2ccc(C(C)(C)C)cc2)n1
  A: . | B: . | C: 101 | D: -14
CC(C)c1ccc(NC(=S)N(Cc2ccccc2)C(C)C)cc1
  A: 101 | B: 90 | C: 103 | D: -50
CCCN1C(=O)c2ccccc2NC1c1ccc(OC)c(CSc2ccccn2)c1 (stereo not given)
  A: . | B: . | C: 101 | D: -15
Cc1[nH]nc2c1C(c1ccccc1)N(c1ccc(Br)cc1)C2=O (stereo not given)
  A: . | B: . | C: 102 | D: 19
COc1ccc(OC)c(C2C3=C(CC(C)(C)CC3=O)Nc3ccccc3N2C(=O)c2ccccc2)c1 (stereo not given)
  A: . | B: . | C: 103 | D: -25
CN(C)S(=O)(=O)n1cc(/C=C(\NC(=O)c2ccccc2Cl)C(=O)NCCCn2ccnc2)c2ccccc21
  A: 99 | B: 86 | C: 106 | D: -22
O=C1CCCc2cc(S(=O)(=O)NCC3CCC(C(=O)NCc4ccc(F)cc4)CC3)ccc2N1 (stereo not given)
  A: 87 | B: 92 | C: 100 | D: .
O=C(COc1ccccc1)n1nc(-c2ccc(Cl)cc2)nc1NCc1ccco1
  A: 104 | B: 102 | C: 111 | D: 3
CC(=O)N1N=C(COc2ccc3c(c2)OCO3)OC1c1ccc(C)cc1 (stereo not given)
  A: 109 | B: 88 | C: 101 | D: -38
CCOc1ccc(OCC(=O)OCc2ncc(-c3ccccc3)o2)cc1
  A: 101 | B: 104 | C: . | D: 12
COc1ccc(OC)c(NC(=O)Cc2coc3ccc(C)cc23)c1
  A: 107 | B: 89 | C: 104 | D: -5
CC1CCCC(C)N1C(=O)Cn1cc(/C=C2/C(=O)Nc3ccccc32)c2ccccc21 (stereo not given)
  A: 114 | B: 84 | C: 111 | D: .
Nc1cc(N)nc(SCC(=O)N2CCCC2c2ccc3c(c2)OCCCO3)n1 (stereo not given)
  A: 78 | B: 89 | C: . | D: -21
COc1ccc(C2=NN3C(C2)c2cc(Cl)ccc2OC32CCCC2)cc1 (stereo not given)
  A: . | B: . | C: 186 | D: -18
CC(C)(C)C(=O)Nc1nc2ccccc2s1
  A: 99 | B: 93 | C: . | D: -14
CCC(=O)N1c2ccccc2-c2nnc(SC)nc2OC1c1ccccc1 (stereo not given)
  A: 102 | B: 86 | C: 118 | D: .
O=C(COc1ccc(Br)cc1)Nc1noc(-c2ccccc2)n1
  A: . | B: . | C: 100 | D: -12
CC(C)OC(=O)/C(C#N)=C\c1cccn1C
  A: 79 | B: 86 | C: 96 | D: -76
COc1cc2c(cc1OC)C(COc1cc(C)cc(C)c1)N(C(=O)c1ccc(S(=O)(=O)N3CCCC3)cc1)CC2 (stereo not given)
  A: 113 | B: 93 | C: 100 | D: .
Cc1cccc(NC(=O)NCC(c2cccnc2)c2c[nH]c3ccccc23)c1C (stereo not given)
  A: . | B: . | C: 96 | D: -16
O=C(Cc1ccccc1)NN1CCCCC1
  A: 85 | B: 82 | C: . | D: -6
Cc1cccc(C)c1N=C1Oc2ccccc2NC1(C)c1ccccn1 (stereo not given)
  A: 106 | B: 96 | C: 103 | D: .
CCN(CC)S(=O)(=O)c1ccc(-c2cn3cccnc3n2)cc1
  A: 103 | B: 99 | C: 103 | D: -16
O=S(=O)(NCc1ccc(F)cc1)c1ccc(-c2cnc(C3CC3)o2)cc1
  A: 115 | B: 93 | C: 99 | D: .
C=CCSc1ncc(Cl)c(C(=O)Nc2ccc(S(N)(=O)=O)cc2)n1
  A: 94 | B: 80 | C: 103 | D: -66
Cc1cc(C)cc(OC(C)C(=O)Nc2nonc2-c2ccc(Br)cc2)c1 (stereo not given)
  A: 106 | B: 83 | C: 102 | D: -12
Cc1ccc(NC(=O)C2CCN(S(=O)(=O)c3cccc4nsnc34)CC2)cc1F
  A: 101 | B: 101 | C: 102 | D: -5
CCn1c(C)cc(/C=C2\SC(=Nc3cc(Cl)ccc3C)NC2=O)c1C
  A: 129 | B: 107 | C: 106 | D: -15
O=C(CN(Cc1ccco1)Cc1cccs1)c1ccc[nH]1
  A: 78 | B: 107 | C: . | D: -4
COCCNc1cc(C(C)(C)C)nc2c(-c3ccc(F)cc3)c(C)nn12
  A: . | B: . | C: 97 | D: -30
O=C(CSc1ncnc2[nH]ncc12)CSc1ncnc2[nH]ncc12
  A: 65 | B: 49 | C: . | D: -16
Cc1cc(C)cc(OCCSc2nc3ccc(NC(=O)c4cccs4)cc3s2)c1
  A: 88 | B: 75 | C: 95 | D: -2
Cc1ccc2nc3sc(C(=O)NCCCN(C)c4ccccc4)cc3cc2c1
  A: 101 | B: 91 | C: 104 | D: .
CCOc1ccc(CCNC(=O)CCN2N=C(c3ccc(OC)cc3)CCC2=O)cc1OCC
  A: 92 | B: 92 | C: 102 | D: .
CC(C)(C)c1ccc(OC(=O)CCC(=O)O)cc1
  A: 109 | B: 92 | C: 106 | D: -4
OC(c1ccccc1)c1cccc(C(F)(F)F)c1 (stereo not given)
  A: 120 | B: 117 | C: 102 | D: 2
Cc1ccc(S(=O)(=O)NCCc2cn3ccsc3n2)c(C)c1
  A: 115 | B: 91 | C: 109 | D: .
CCOc1ccc(CCNc2ncnc3onc(-c4ccc(Cl)cc4)c23)cc1
  A: 105 | B: 86 | C: 97 | D: .
O=C(c1nc(-c2ccccc2)n(-c2cccc(Cl)c2)n1)N1CCc2ccccc2C1
  A: . | B: . | C: 102 | D: 22
CCOC(=O)CSc1ncn[nH]1
  A: . | B: . | C: 102 | D: -7
O=S(=O)(Nc1ccc2nc(-c3ccc(F)cc3)oc2c1)c1ccccc1
  A: 106 | B: 89 | C: 99 | D: -17
COc1ccc2c3c(ccc2c1)C(=O)CCC3
  A: 124 | B: 98 | C: . | D: -24
COc1ccc(-c2cc3nc(C)c(CCC(=O)NCc4ccccc4Cl)c(C)n3n2)c(OC)c1
  A: 79 | B: 98 | C: 109 | D: -12
N#CCc1ncc(-c2cc3cc(Br)ccc3oc2=O)s1
  A: 89 | B: 88 | C: 104 | D: 14
c1ccn(-c2nnc(C3CC3)s2)c1
  A: 112 | B: 86 | C: 109 | D: 0

(next part)
Short forms – A = Sa growth 42C; B = Sa growth 42C second temp; C = GIV Gai3 FP; D = HCMV UL50-53 inh
O=C(CSc1ccc2nnc(CCNS(=O)(=O)c3ccccc3)n2n1)Nc1ccccc1C(F)(F)F
  A: 99 | B: 68 | C: 113 | D: .
C=CCn1c(=O)c2c(C)c(C)sc2n2c(Nc3ccc(C(=O)OCC)cc3)nnc12
  A: 113 | B: 83 | C: 102 | D: .
O=S1(=O)CC=C(S(=O)(=O)c2ccccc2)C1
  A: 77 | B: 81 | C: 100 | D: -36
Cc1cc(=O)oc(C)c1C(=O)NCc1c(F)cc(F)cc1F
  A: 98 | B: 103 | C: 97 | D: 0
Cn1c(=O)c2c([nH]c(=O)n2C)n(C)c1=O
  A: 112 | B: 103 | C: 104 | D: 6
Cn1nccc1C(=O)Nc1sc2c(c1C#N)CCC2
  A: 107 | B: 92 | C: 105 | D: -1
COC(=O)c1ccc(CN2CCN(c3ccccc3OC)CC2)cc1
  A: 105 | B: 96 | C: . | D: -3
CCOC(=O)c1ccc(NC(=O)Cn2cnc3c(nnn3-c3cccc(Cl)c3)c2=O)cc1
  A: 100 | B: 95 | C: 107 | D: 11
COc1ccc(C(C(=O)NCc2cccs2)N(Cc2ccco2)C(=O)Cn2nnc(-c3cccs3)n2)cc1 (stereo not given)
  A: 112 | B: 83 | C: 99 | D: 6
CC1CC(C)CN(C(=O)Cn2c(=O)n(-c3ccc(Cl)cc3)c(=O)c3c4c(sc32)CCC4)C1 (stereo not given)
  A: 115 | B: 96 | C: 101 | D: .
Cc1cccc(-n2c(SC3CCOC3=O)nnc2-c2c[nH]c3ccccc23)c1 (stereo not given)
  A: 98 | B: 89 | C: . | D: -9
O=C1CCSc2ccc(S(=O)(=O)Nc3ccc(Cl)cn3)cc2N1
  A: . | B: . | C: 105 | D: -8
CNC(=O)/C(=C\c1ccc(Cl)cc1)NC(C)=O
  A: 116 | B: 91 | C: . | D: -11
COC(=O)c1c(NC(=O)/C=C/c2ccc(OC)cc2)sc2c1CCC2
  A: 102 | B: 79 | C: 103 | D: -12
O=C1N=c2ccccc2=C1c1sc(Nc2nccs2)nc1O
  A: 81 | B: 29 | C: . | D: -64
O=C(NC(=S)OCc1ccccc1Cl)c1ccco1
  A: 104 | B: 66 | C: . | D: -40
CN1CCN(C(c2cccs2)N2CCN(C)CC2)CC1
  A: 99 | B: 87 | C: 107 | D: -19
O=C(COC(=O)Cc1cccc(C(F)(F)F)c1)NCc1ccccc1Cl
  A: 92 | B: 86 | C: . | D: -28
Cc1ccc(Oc2nc3ccccc3n3c(=O)[nH]nc23)cc1
  A: . | B: . | C: 103 | D: -36
COc1cc(-c2cc(-c3ccccc3)nc(SCC(=O)Nc3cc(C)on3)c2C#N)cc(OC)c1OC
  A: . | B: . | C: 102 | D: 4
CCOC(=O)c1cnn(CCOC(=O)c2ccccc2)c1NC(=O)c1ccccc1
  A: 113 | B: 91 | C: 101 | D: -1
COc1ccc(NC(=O)c2oc3ccccc3c2NC(=O)c2ccccc2)cc1
  A: 84 | B: 81 | C: 99 | D: .
O=C(CSc1ccc(-c2cccs2)nn1)Nc1ccccc1C(F)(F)F
  A: 121 | B: 68 | C: 103 | D: .
CCCCOC(=O)NS(=O)(=O)c1sc(CC(C)C)cc1-c1ccc(Cn2c(CC)nc3c(C)cc(C)nc32)cc1
  A: . | B: . | C: 100 | D: -20
O=C(NCCc1ccc(Cl)cc1)c1nnc(Cc2ccc(F)cc2)o1
  A: 96 | B: 85 | C: 102 | D: -3
CC(C)NC(=O)N1CCCC(c2cccc(C(=O)NCCCN3CCCCC3)c2)C1 (stereo not given)
  A: . | B: . | C: 103 | D: -28
CCOC(=O)C(C)Sc1ncnc2c1nnn2Cc1ccc(Cl)cc1 (stereo not given)
  A: 83 | B: 86 | C: 103 | D: -40
COc1ccc(Cl)cc1-c1nc(C=Nc2ccc(Br)cn2)c(O)o1
  A: . | B: . | C: 104 | D: 16
